Bioassay records deposited in PubChem by National Center for Advancing Translational Sciences (NCATS).
RE007 growth inh – less growth of the S. pombe RE007 Vpr strain. S. pombe RE007 Vpr strain, BacTiter-Glo ATP luminescence, 24 h; control for the full effect not named in the record. Potency, µM (titrated, usually from 92.2 µM), inactives show at the highest dose activity change, negative = less growth. hit rate 0.21% among 360,000; active = well fitted falling curve with a large enough effect; inconclusive = small, poorly fitted or top-dose-only effect; inactive = no such curve, though single readings can be large or run the other way;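 also: % is scaled to controls: 0 for no effect and ±100 for the full control effect; nearly all actives have a fitted effect of over 50% in size; the assay follows cell death caused by Vpr and the record does not say whether a fall means rescue or toxicity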
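Fission yeast strain RE007, carrying one chromosomally integrated HIV-1 vpr copy, was seeded at OD 0.01 in PMG+AL medium with 23 nL pinned compound. After 24 h at 30 °C and 99% humidity, viability was read by BacTiter-Glo luminescence.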
SARS PLpro yeast – inhibitors of SARS-CoV papain-like protease in yeast; S. cerevisiae expressing SARS-CoV PLpro, growth rescue; control for the full effect not named in the record; Potency, µM (doses to about 32.9 µM), without a hit: at the top dose activity, positive = growth rescue; hit rate 0.19% among 330,000; also: 0% is about no effect; nearly all actives have a fitted effect of over 55% in size; growth read by luminescence after 48 h
NS1 function inh – blocks influenza NS1 protein function; AID 2326; Potency, µM (doses to about 46.1 µM), for the others: at the top dose activity, positive = more growth; hit rate 0.4% among 270,000; S. cerevisiae slowed by influenza A NS1, growth recovery by OD600; also: actives are rising curves; nearly all actives have a fitted effect of over 50% in size
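OD600 was taken as the measure of yeast growth restored by compound in an NS1-expressing S. cerevisiae strain. Cells had been washed out of glucose medium and diluted 1:100 into galactose -URA medium, pH 6.0.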
Marburg entry inh – blocks Marburg virus binding to or entry into cells. Marburg virus pseudotyped entry inhibition, cell reporter; control for the full effect not named in the record; about a third of the inactives were read at about 46 µM. Potency, µM (doses to about 37.8 µM), inactives show top-dose activity change, negative = inhibition, actives largely listed as inhibitors. hit rate 1.8% among 300,000; active = well fitted inhibition curve with a large enough effect; inconclusive = small, poorly fitted or top-dose-only effect, or effect the other way; inactive = flat fitted curve, though single readings scatter; tested in HEK293 cells; about a fifth of its hits are not listed in these tables; also: % is scaled to controls: 0 for no effect and ±100 for the full control effect; luciferase read-out
2A StopGo – lowers the luciferase signal of an FMDV 2A StopGo reporter. human cells with a luciferase reporter of 2A StopGo recoding; control for the full effect not named in the record. Potency, µM (highest dose often 57.9 µM), for inactives: top-dose signal change, negative = less light. hit rate 1.2% among 410,000; active = well fitted falling curve with a large enough effect; inconclusive = small, poorly fitted or top-dose-only effect; inactive = no such curve, though single readings can be large or run the other way; tested in HEK293T cells; also: % is scaled to controls: 0 for no effect and ±100 for the full control effect; nearly all actives have a fitted effect of over 45% in size; luciferase light after 4 h
Cruzain Triton – blocks cruzain activity in presence of Triton detergent; purified cruzain, Z-FR-AMC fluorescence, 0.01% Triton; Potency, µM, without a hit: max response, negative = inhibition, actives largely listed as inhibitors; hit rate 0.43% among 200,000; AID 1478; active = well fitted curve in the direction sought with a large enough effect; inconclusive = small, poorly fitted or top-dose-only effect, or another doubt; inactive = no such curve, though single readings can be large; an effect the other way counts as inactive or inconclusive;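 also: plate controls were neutral wells for no effect and buffer without enzyme for full effect; nearly all actives have a fitted effect of over 40% in size; top concentration of the series not given in the record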
Target sequence (P25779 123-467 limits assumed): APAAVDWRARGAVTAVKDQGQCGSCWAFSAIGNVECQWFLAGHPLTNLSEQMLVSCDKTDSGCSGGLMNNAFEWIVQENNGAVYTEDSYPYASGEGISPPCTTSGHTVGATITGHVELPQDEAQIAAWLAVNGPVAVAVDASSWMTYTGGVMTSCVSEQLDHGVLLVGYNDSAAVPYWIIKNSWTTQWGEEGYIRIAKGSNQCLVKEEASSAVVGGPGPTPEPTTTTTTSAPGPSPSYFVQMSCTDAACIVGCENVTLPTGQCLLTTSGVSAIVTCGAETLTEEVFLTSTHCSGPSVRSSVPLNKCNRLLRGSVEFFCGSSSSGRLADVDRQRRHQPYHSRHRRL
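In this qHTS format, compounds are incubated with 1.5 nM cruzain for 15 min at room temperature before 2 uM Z-FR-AMC is added. Release of AMC is followed at 360/450 nm, and progress is taken as the 60 s fluorescence difference.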
Cruzain inh noDet – blocks cruzain activity in detergent-free assay; P25779; Potency, µM, for the others: max response, negative = inhibition, actives largely listed as inhibitors; hit rate 2.3% among 200,000; purified cruzain, Z-FR-AMC fluorescence, no detergent; active = well fitted curve in the direction sought with a large enough effect; inconclusive = small, poorly fitted or top-dose-only effect, or another doubt; inactive = no such curve, though single readings can be large; an effect the other way counts as inactive or inconclusive;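 also: plate controls were enzyme without inhibitor for no effect and buffer without enzyme for full effect; nearly all actives have a fitted effect of over 40% in size; top concentration of the series not given in the record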
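Purified cruzain at 1.5 nM, pre-incubated 15 min with compound at room temperature in 100 mM sodium acetate pH 5.5, 5 mM DTT, 0.00005% Triton X-100. Reaction started with 2 uM Z-FR-AMC; AMC fluorescence increase over 60 s gives rate.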
Lassa entry inh – blocks Lassa virus binding to or entry into cells; Lassa virus pseudotype entry inhibition, cell reporter; control for the full effect not named in the record; Potency, µM (series often up to 37.9 µM), for inactives: top-dose activity change, negative = inhibition, hits mostly inhibitors; hit rate 1.2% among 300,000; active means well fitted inhibition curve with a large enough effect; inconclusive means small, poorly fitted or top-dose-only effect, or effect the other way; inactive means flat fitted curve, though single readings scatter; tested in HEK293 cells; also: % is scaled to controls: 0 for no effect and ±100 for the full control effect; nearly all actives have a fitted effect of over 50% in size; luciferase read-out
* = called active by the depositor; ? = inconclusive; . = not tested or not shown; & = joins results of further samples; [ ] = another dose, or the depositor's remark. Unless noted, calls follow the shape of the dose curve; as a rule, active means well fitted rising curve with a large enough effect; inconclusive means small, poorly fitted or top-dose-only effect; inactive means no such curve, though single readings can be large or run the other way. Potency is read from the fitted curve at half-maximal effect.

| molecule | RE007 growth inh | SARS PLpro yeast | NS1 function inh | Marburg entry inh | 2A StopGo | Cruzain Triton | Cruzain inh noDet | Lassa entry inh |
| --- | --- | --- | --- | --- | --- | --- | --- | --- |
| CCOc1ccc2nc(SCC(=O)Nc3ccc4[nH]c(=O)[nH]c4c3)[nH]c2c1 | -1.0% | -4.9% | . | ? | -9.7% | . | . | -17.7% |
| CCOc1cc(/C=N/Nc2nc(C)cc(=O)[nH]2)ccc1O | 16.6% | 0.5% | 0.5% | ? | 28.1% | . | . | 12.5%[46.1 µM] |
| CCOC(=O)c1cc(-c2ccc(N3CCOCC3)cc2)nn1-c1ccc(F)cc1F | -7.1% | 18.8% | -19.8% | -28.6% | -20.6% | -8.8% | 14.2% | ? |
| CN(C)S(=O)(=O)c1ccc2c(c1)nc(CCC(=O)O)n2C | 5.0% | 1.3% | . | -3.1% | 6.8% | . | . | -2.1% |
| O=C(Cc1c(F)cccc1Cl)OCC(=O)c1ccc[nH]1 | -10.9% | 1.3% | . | -1.5% | 66.7%[activator] | . | . | 31.4% |
| Fc1ccc(-c2noc3ncnc(NCCc4ccc(Cl)cc4)c23)cc1 | . | . | . | . | ? | -0.4% | -2.0% | ? |
| NS(=O)(=O)c1ccc(NC(=S)Nc2cc(Cl)c(Cl)cc2Cl)cc1 | 0.1% | 3.4% | -0.7% | ? | -27.5% | -8.9% | 15.2% | 0.3% |
| CC(C)CC(C)N1CCC(n2nccc2NC(=O)CCc2ccccc2)CC1 (configuration not stated) | 0.5% | -23.5% | -3.3% | . | -15.5% | . | . | . |
| O=C(NCc1ccccn1)Nc1cccc(Cl)c1 | 7.4% | 1.1% | -22.8% | ? | . | 2.1% | -9.3% | 0.9% |
| c1ccc2sc(NCC3CCCO3)nc2c1 (configuration not stated) | 17.0% | -1.6% | . | ? | 17.8% | . | . | -13.0%[46.1 µM] |
| CN1CCC(N(C)C(=O)c2sc3cc(F)ccc3c2Cl)CC1 | -5.3% | -0.6% | -2.1% | -5.8%[46.1 µM] | 5.2% | . | . | 18.3% |
| C=CCn1c(SCC(=O)Nc2cccc3ccccc23)nnc1-c1cnccn1 | 5.2% | 0.0% | 4.0% | -5.7% | 20.5% | -8.7% | -12.0% | -16.1% |
| Cc1ccc(F)cc1NC(=O)C1C2CCC(O2)C1C(=O)O (configuration not stated) | 5.4% | 0.9% | 7.4% | . | 3.9% | . | . | . |
| CCN1C(=O)c2ccccc2S(=O)c2ccc(C(=O)NCc3ccc(Cl)cc3)cc21 (configuration not stated) | . | . | . | 11.5%[46.1 µM] | ? | -2.7% | -5.5% | -1.5%[46.1 µM] |
| Cc1ccc(-c2nc(C(=O)NCc3ccccc3Cl)c3n2CCCCC3)cc1 | . | . | . | . | -0.4% | -0.6% | -1.6% | -5.9%[46.1 µM] |
| CCC(=O)c1ccc(OCC(=O)OCC(=O)c2c(N)n(C)c(=O)n(C)c2=O)cc1 | -0.6% | 0.1% | . | 13.7% | 0.0% | . | . | -0.6% |
| CCC(C(=O)NCCc1ccccc1)c1ccccc1 (configuration not stated) | -14.1% | -0.5% | 0.8% | . | -3.1% | . | . | . |
| COc1ccc(NC(=O)COc2coc(CN3CCc4ccccc4C3)cc2=O)cc1 | -10.8% | -2.3% | . | -19.0% | -23.9% | . | . | 0.0% |
| COc1cc(OC)c2ccc(=O)oc2c1C(CCN1CCCC(C)C1)c1ccc(N(C)C)cc1 (configuration not stated) | -21.8% | -0.1% | -8.1% | . | -10.2% | . | . | . |
| CCOC(=O)C1CCCN(C(=O)/C=C/c2ccc(OC)cc2)C1 (configuration not stated) | 10.0% | -1.3% | -2.8% | . | 4.7% | . | . | . |
| Cc1cnc(CN(C)C(=O)c2ccc3oc(Cc4ccc(Cl)cc4)nc3c2)[nH]1 | -14.3% | -11.6% | 7.7% | . | -25.7% | . | . | . |
| CCN(CC)C(=O)CSc1nnc2nnc3cc(OC)ccc3n12 | -26.3% | -3.0% | 7.7% | -7.5%[46.1 µM] | -13.6% | . | . | -1.4% |
| O=C(NCCCc1ccccc1)c1ccc2c(c1)sc1nc(-c3ccc(F)cc3)cn12 | . | . | . | . | -2.0% | -1.6% | 4.0% | -1.4%[46.1 µM] |
| CC(C)[C@H](NC(=O)c1ccccc1)C(=O)O | -1.2% | 2.5% | . | ? | -14.4% | . | . | 21.1% |
| CCOC(=O)C1=C(CN2CCN(C(=O)c3ccco3)CC2)NC(=O)NC1c1ccccc1 (configuration not stated) | 3.2% | -1.4% | 1.1% | . | -17.8% | . | . | . |
| CN1CCN(C(=S)NC(=O)/C=C/c2ccccc2)CC1 | 0.0% | 15.2% | 4.5% | 5.2% | 76.5%[activator] | -1.9% | -1.0% | 7.0% |
| N#CC(C#N)=C(N)/C(C#N)=C/c1ccc(O)cc1 | . | . | -19.8% | 23.5%&23.5%&23.5%&26.8%&23.5% | . | -6.4% | -11.8% | 2.8% |
| O=C1/C(=C2\C(=O)N(Cc3ccc(F)cc3)c3ccccc32)SC(=S)N1CCS(=O)(=O)O | 2.1% | -0.3% | 12.4% | . | -5.4% | . | . | . |
| Cc1cccn2c(CN(C)C3CCOC3)c(C(=O)N3CCCCC3)nc12 (configuration not stated) | 1.5% | 1.6% | 5.0% | 8.0%[46.1 µM] | 23.2% | . | . | 20.8%[46.1 µM] |
| CC(C)(C)NC(=O)Cn1c(-c2nonc2N)nc2ccccc21 | 12.3% | 2.4% | 3.4% | -2.9% | ? | 0.9% | -6.7% | 17.2% |
| NC(=O)CSc1nc2ccccc2c(=O)n1Cc1ccco1 | 1.3% | 11.7% | 18.9% | 8.0%[46.1 µM] | -10.9% | -0.4% | -20.0% | 2.6% |
| CCC(C)N(C(=O)COC(=O)C1C(C(=O)OC)=C(C)NC(C)=C1C(=O)OC)C1CCS(=O)(=O)C1 (configuration not stated) | -1.8% | 0.8% | . | -3.0%[46.1 µM] | -3.4% | . | . | 8.4%[46.1 µM] |
| COc1ccc(OCC(=O)NS(=O)(=O)c2ccc(Cl)cc2)cc1 | 10.2% | -1.3% | -23.1% | 11.7%[46.1 µM] | 10.6% | . | . | 20.7%[46.1 µM] |
| COc1ccc(CN2CCNC(=O)C2CC(=O)NCCc2nc(C)c3c(n2)CCC3)cc1C (configuration not stated) | 15.9% | -2.6% | 0.7% | . | -1.6% | . | . | . |
| Cn1c(=S)c2[nH]c(SCC3CCCO3)nc2n(C)c1=O (configuration not stated) | 0.6% | . | . | 20.6% | -15.4% | . | . | 7.0% |
| Cc1cccc(C)c1OCc1cc(C(=O)NCC2COCCO2)no1 (configuration not stated) | 6.3% | 2.8% | -14.9% | 26.6% | 3.3% | . | . | 24.3% |
| CC1=C(C(=O)OCC(C)C)C23C(=O)c4ccccc4C2(O1)OC(N)=C3C#N (configuration not stated) | -4.9% | -2.6% | -39.7% | 20.5% | -1.0% | -10.4% | -4.4% | -8.4% |
| COc1ccccc1CNc1ncnc2c1nnn2C | . | . | . | . | 2.8% | -2.5% | -4.0% | -6.9%[46.1 µM] |
| COc1ccc(C(CNC(=O)CCNS(=O)(=O)c2ccc(C)cc2)N2CCOCC2)cc1 (configuration not stated) | 13.9% | 2.8% | . | 0.5%[46.1 µM] | 18.4% | . | . | -2.8% |
| COc1ccc(NC(=O)C2CCCN2S(=O)(=O)c2cccc3nsnc23)c(OC)c1 (configuration not stated) | -2.3% | 4.0% | 10.7% | . | -12.6% | . | . | . |
| Cc1cccc(NC(=O)C2CC(=O)N/C(=N/N=C/c3ccco3)S2)c1 (configuration not stated) | -22.3% | 8.8% | -3.5% | 0.8% | -27.8% | -0.9% | ? | 9.0% |
| Cc1cc(C)c(NC(=O)C2CC(=O)N(C(C)C)C2)c(C)c1 (configuration not stated) | -1.2% | 1.3% | 6.7% | . | 3.1% | . | . | . |
| COC(=O)c1c(NC(=S)Nc2ccccc2Cl)sc(C)c1C | -4.4% | -2.3% | -2.6% | -12.2% | . | -3.2% | 12.6µM* | ? |
| CCCc1ccc(NC(C)C(=O)Nc2ccc(S(=O)(=O)N3CCOCC3)cc2)cc1 (configuration not stated) | -14.7% | -4.1% | . | ? | -11.3% | . | . | ? |
| CCOc1ccc(NC(=O)c2ccc3c(c2)CCN3S(=O)(=O)CC)cc1 | . | . | . | -9.2%[46.1 µM] | 0.0% | -6.0% | 12.8% | 6.5%[46.1 µM] |
| O=C(O)c1ccc(-c2cccc(Cl)c2)o1 | 9.6% | . | . | 4.0% | 31.3%[activator] | . | . | -8.0% |
| Cc1nc2sc(C(=O)c3ccccc3)c(N)c2c2c1CCCC2 | 1.6% | -20.6% | -3.8% | ? | 4.4% | -2.7% | -11.7% | -26.6% |
| CC(C)N1CCc2c(sc(NC(=O)c3ccc(C(=O)c4ccccc4)cc3)c2C(N)=O)C1 | 4.4% | -3.3% | 3.2% | ? | -1.7% | . | . | ? |

A different layout for some results above.
> NC(=O)CSc1nc2ccccc2c(=O)n1Cc1ccco1
  RE007 growth inh: 1.3%
  SARS PLpro yeast: 11.7%
  NS1 function inh: 18.9%
  Marburg entry inh: 8.0%[46.1 µM]
  2A StopGo: -10.9%
  Cruzain Triton: -0.4%
  Cruzain inh noDet: -20.0%
  Lassa entry inh: 2.6%

> Cc1nc2sc(C(=O)c3ccccc3)c(N)c2c2c1CCCC2
  RE007 growth inh: 1.6%
  SARS PLpro yeast: -20.6%
  NS1 function inh: -3.8%
  Marburg entry inh: ?
  2A StopGo: 4.4%
  Cruzain Triton: -2.7%
  Cruzain inh noDet: -11.7%
  Lassa entry inh: -26.6%

> CCCc1ccc(NC(C)C(=O)Nc2ccc(S(=O)(=O)N3CCOCC3)cc2)cc1 (configuration not stated)
  RE007 growth inh: -14.7%
  SARS PLpro yeast: -4.1%
  NS1 function inh: .
  Marburg entry inh: ?
  2A StopGo: -11.3%
  Cruzain Triton: .
  Cruzain inh noDet: .
  Lassa entry inh: ?
